NPR1 antag: blocks ANP-stimulated signaling of human Npr1 receptor; actives 1.6% (n = 76,000); Potency, µM (highest dose often 46.3 µM), for the others: at the highest dose activity change, negative = inhibition, hits mostly inhibitors; P16066; HEK293 hNpr1 GloSensor cGMP, ANP-stimulated luminescence; active = well fitted inhibition curve with a large enough effect; inconclusive = small, poorly fitted or top-dose-only effect; inactive = no such curve, though single readings can be large or run the other way;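 note: nearly all actives have a fitted effect of over 60% in size; nearly all hits also lower the signal before the agonist is added; a reference antagonist and vehicle were the controls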
Target sequence (P16066 whole entry, looked up): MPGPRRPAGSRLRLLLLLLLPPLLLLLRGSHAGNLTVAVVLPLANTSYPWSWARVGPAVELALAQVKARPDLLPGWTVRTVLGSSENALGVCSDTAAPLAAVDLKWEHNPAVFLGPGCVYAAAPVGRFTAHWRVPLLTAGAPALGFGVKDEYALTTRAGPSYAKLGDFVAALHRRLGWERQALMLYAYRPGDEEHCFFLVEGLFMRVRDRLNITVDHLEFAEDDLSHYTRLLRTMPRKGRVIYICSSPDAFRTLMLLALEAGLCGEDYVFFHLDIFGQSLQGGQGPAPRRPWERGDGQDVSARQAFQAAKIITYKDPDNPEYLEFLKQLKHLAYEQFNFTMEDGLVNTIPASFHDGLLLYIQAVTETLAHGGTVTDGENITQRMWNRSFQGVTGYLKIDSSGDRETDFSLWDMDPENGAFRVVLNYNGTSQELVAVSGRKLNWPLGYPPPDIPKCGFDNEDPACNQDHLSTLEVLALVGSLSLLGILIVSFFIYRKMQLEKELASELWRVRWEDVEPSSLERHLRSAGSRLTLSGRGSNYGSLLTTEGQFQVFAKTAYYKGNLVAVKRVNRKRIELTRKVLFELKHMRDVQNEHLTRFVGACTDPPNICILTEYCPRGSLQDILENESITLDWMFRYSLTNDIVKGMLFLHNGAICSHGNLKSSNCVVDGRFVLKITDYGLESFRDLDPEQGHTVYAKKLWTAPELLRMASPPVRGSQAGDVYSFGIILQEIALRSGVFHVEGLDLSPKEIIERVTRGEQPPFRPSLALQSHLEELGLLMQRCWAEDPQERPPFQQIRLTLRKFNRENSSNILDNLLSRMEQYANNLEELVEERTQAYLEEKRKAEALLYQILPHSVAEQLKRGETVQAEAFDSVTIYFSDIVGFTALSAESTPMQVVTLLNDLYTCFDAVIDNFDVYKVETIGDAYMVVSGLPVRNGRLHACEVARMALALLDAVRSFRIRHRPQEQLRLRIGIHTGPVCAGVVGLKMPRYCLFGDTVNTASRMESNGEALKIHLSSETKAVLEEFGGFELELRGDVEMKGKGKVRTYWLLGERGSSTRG
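HEK293 cells stably expressing human Npr1 and cGMP GloSensor pGS-40F, loaded 2 h with 2% GloSensor reagent, given compound 30 min at room temperature. Luminescence read before and 20 min after 0.1 nM hNppA.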
Numbers without * were called inactive; ? = inconclusive; [ ] = remark or other dose. % is set by controls: 0 for no effect and ±100 for the full control effect; potency is the fitted concentration of half-maximal effect.

SMILES | NPR1 antag
CC(C)NC(=O)N1CCCN(S(=O)(=O)c2ccccc2)CCC(=O)NCC1 | 2.0%
COc1ccc(-c2cc(-c3cccnc3)c3cncn3c2)cc1OC | -0.2%[70.6 µM]
Cc1ccc(-c2noc([C@@H]3C[C@@H](O)CN3Cc3ccc(S(C)(=O)=O)cc3)n2)cc1F | 1.7%[70.6 µM]
COc1ccc(CNC(=O)CC[C@@H]2CNC(=O)[C@@H]3C[C@H](NCc4ccc(N(C)C)cc4)CN23)cc1 | 0.0%
Cc1nc(C)c(C(=O)N2CC(Oc3ccccc3-c3nc(C4CC4)no3)C2)s1 | -2.0%
COc1ccc2[nH]c(C(=O)N3CCN4CCS(=O)(=O)N(C5CC5)C(=O)C4C3)cc2c1 (configuration not stated) | 2.5%
Cc1sc2ccn(Cc3ccc(F)cc3)c(=O)c2c1C(=O)NCc1cccs1 | -1.8%
O=C(COc1ccccc1)N1CCC(Cc2nc(-c3ccncc3)n[nH]2)CC1 | 1.6%
CC(=O)c1c(C)nn(CCC(=O)N[C@H]2CCOC[C@H]2C2CCOCC2)c1C | 8.5%
Cc1sc2ccn(Cc3ccc(F)cc3)c(=O)c2c1C(=O)NCCCN1CCOCC1 | 2.0%
CN(CCc1ccccn1)c1ncccc1CNC(=O)C1CCc2ccccc21 (configuration not stated) | -3.7%
COc1ccc(-c2cc(C(=O)NCc3ccnc(N)c3)c3c(c2)ncn3C)cc1 | -7.6%[70.6 µM]
CN1C[C@@H](NC(=O)Nc2ccccc2)C[C@H]1c1nc(-c2cnccn2)no1 | -2.0%[70.6 µM]
Cc1nc(C(F)(F)F)nc(N2CCN(C3CCCC3)C(CCO)C2)c1C (configuration not stated) | 0.9%
COc1ccc(O[C@H]2COCCN(S(=O)(=O)c3ccc(OC)cc3)C2)cc1 | -0.5%[70.6 µM]
O=C(NCc1c[nH]c2ncccc12)c1ccc(F)cc1 | -24.5%[70.6 µM]
CCOc1cc(=O)n2c(c1C(=O)Nc1cccc(C(=O)OC)c1)CCCC2 | 1.5%
CC(C)(C)c1ccc(C(=O)Nc2nc3c(s2)C[C@@H]2[C@](C)(CO)[C@H](O)CC[C@@]2(C)[C@@H]3CC(=O)N2CCC(C(N)=O)CC2)cc1 | -7.5%
O=C(C1CC1)N1CCC(N2CC(OCC3CC3)C23CCOCC3)CC1 (configuration not stated) | 6.1%
COC[C@@H]1CN(C(=O)COc2ccccc2)C[C@H]1C(N)=O | 4.1%
CC(C)(C)NC(=O)N1CCCOCCNC(=O)[C@@H]2CCC[C@@H]21 | 9.8%
CCOCC(=O)N1[C@@H]2CC[C@H]1CC(NC(=O)c1cnc(C)cn1)C2 (some centres not stated) | 4.4%
COc1ccc(NC(=O)c2cccc3c2CCN3C(=O)c2ccc(F)cc2)c(OC)c1 | 17.8µM*
CC1(C)[C@H](Cc2cc(CCO)on2)C[C@@H]1NCc1ccco1 | 2.9%[70.6 µM]
O=C1NCCCCCCN(C(=O)CCc2ccccc2)[C@H]2C[C@H](c3nc(-c4cnccn4)no3)C[C@@H]12 | 0.7%
CC(C(=O)NCCc1cccnc1)C1CCOCC1 (configuration not stated) | 0.0%
CN(C)c1ccc(CN2CC[C@H](c3nc4ncccc4[nH]3)C2)cc1 | -7.2%[70.6 µM]
CCn1ccc(C(=O)N2CCC3(CCC3NC(=O)COC)CC2)n1 (configuration not stated) | -0.8%
O=C1COC[C@H]([C@H](O)c2ccc(NC(=O)c3ccnc(Cl)c3)cc2)N1 | -2.0%[70.6 µM]
CCN(Cc1ccccc1)C(=O)CC1CCCN(c2cnn(CC)c(=O)c2)C1 (configuration not stated) | 2.1%
Cc1ccc(C2=NC3(CCN(C(=O)c4ccccc4C)CC3)ON2)cc1 | -12.3%
COCCC(=O)N1CCC(N2CC3CC(C2)[C@H]2CCCC(=O)N2C3)CC1 (some centres not stated) | 4.3%
CCc1nc2c(c(-c3ccc(Cl)cc3)n1)CCN(Cc1ccns1)CC2 | -1.9%
Fc1ccc(CN2CC[C@H](c3nnc(-c4ccc(Cl)cc4)o3)C2)cc1 | -27.7%[70.6 µM]
CC1(C(=O)NCc2cnccn2)CCc2cnc(NCc3ccccc3)nc21 (configuration not stated) | 1.3%[70.6 µM]
O=C1NC2(CCN(CC3CCCC3)CC2)Oc2ccccc21 | ?
COc1ccc(CN2C(=O)[C@@H]3C[C@@H](CN3C3COC3)Oc3ccccc32)cc1 | -4.5%[70.6 µM]
Cc1cc(CNC(=O)c2cc(-c3cccnc3)cc3c2OCCN3C)no1 | 0.8%[70.6 µM]
CCC(C)NC(=O)CN1CN(c2ccccc2)C2(CCN(C(=O)c3cccc(OC)c3)CC2)C1=O (configuration not stated) | 0.4%
CCN1CCN(CCNC(=O)CN2CCCc3nc(C4CC4)ncc3C2=O)CC1 | -2.1%
COc1ccc(-c2noc([C@@H]3CCCN3C(=O)c3cccc(C)c3)n2)cc1 | -12.1%
O=C(CCc1nc(C2CCOC2)no1)NC1CCCCCCC1 (configuration not stated) | -0.9%
COc1ccc(C(=O)N2CCC3(CC2)NCCc2c3[nH]c3ccccc23)cn1 | -3.9%
CC1=C[C@@H](CNS(=O)(=O)c2cccs2)[C@H](C(C)C)C[C@H]1CC(=O)NCCN1CCOCC1 | 2.4%
O=C(c1cccc(-c2cccc(-n3cnnc3)c2)c1)N1CCCCC1 | -21.0%
O=C(COc1ccc(F)cc1)N1CC(c2noc(COc3ccccc3)n2)C1 | -17.3%
CCc1ccc(CN2CCC3(CC2)CN(C(C)=O)CC3COC)cc1 (configuration not stated) | -0.8%
O=C(c1ccccc1OCC1CCCN(Cc2ccsc2)C1)N1CCCC1 (configuration not stated) | 0.6%
Cc1cccc(CC(=O)N2CCCn3cc(-c4cccc(C#N)c4)nc32)c1 | 0.5%
COC[C@@H]1CN(S(=O)(=O)c2ccccc2)C[C@H]1c1ccncc1 | -6.5%
O=C1CC(c2ccccc2)N(C(=O)CNS(=O)(=O)Cc2ccccc2)CCCCCN1 (configuration not stated) | 6.0%
COCC(=O)N1CC[C@H]2COC(=O)N2c2cc(F)ccc2C1 | 4.5%[70.6 µM]
CNC(=O)N1CCc2nc(N(C)C)[nH]c(=O)c2CC1 | -0.3%
O=C(c1ccccc1C(F)(F)F)N1C[C@@H](CO)[C@H](c2ccccn2)C1 | -2.7%
COCc1cc(=O)n(CC(=O)Nc2cccc(F)c2)c(N2CCOCC2)n1 | -4.5%
O=C(O)c1cccc(C(=O)N2C[C@@H]3C[C@H](C2)c2ccc(NC(=O)c4cccs4)c(=O)n2C3)c1 | 2.0%
O=C1CO[C@H]2CCN(Cc3ccccc3Cl)CC[C@@H]2N1c1ccccc1 | -26.5%[70.6 µM]
O=C(C1CC1)N1CCc2nc(C3CC3)nc(-c3ccc(Cl)cc3)c2C1 | -13.7%
Cc1cn2nc(C(=O)NCCCc3ccccc3)cc2c(N2CCSCC2)n1 | 7.7%
CCc1noc(-c2cn(C3CCN(C(=O)c4ccc[nH]4)CC3)nn2)n1 | 3.8%

Other structures follow.
SMILES | NPR1 antag
O=c1cc(N2CCOCC2)oc2c(-c3ccc(F)c(Cl)c3)nccc12 | 4.2%[70.6 µM]
CCN1CC2(CCC1=O)CCN(Cc1ccc(C(F)(F)F)c(F)c1)CC2 | -25.9%
COc1cncc(Nc2cnc3ccc(-c4ccccc4)nn23)c1 | -14.3%[70.6 µM]
CN(C)[C@H]1C[C@@H](Cc2cc(COc3ccccc3)on2)C1(C)C | 0.2%[70.6 µM]
COc1ccc(F)c(CN2CCC3(CCC(=O)N(CCO)C3)CC2)c1 | 9.9%
O=C(CCCn1nnnc1CN1CCOCC1)N1CCCCC1CCc1ccccn1 (configuration not stated) | -7.1%
Cc1ccc(C(=O)N2CCC(CCC(=O)N3CCN(c4ccccn4)CC3)CC2)cc1 | ?
S=C(NC1CCCCC1)N[C@H]1CO[C@H]2[C@@H]1OC[C@@H]2n1cc(-c2ccccn2)nn1 | ?
O=C(C[C@@H]1C[C@H]2O[C@H](CNCc3ccncc3F)[C@@H](O)[C@H]2O1)N1CCC(F)(F)C1 | 2.3%[70.6 µM]
O=C(NC1CCCCCC1)c1ccc(N2CC3CC(C2)[C@H]2CCCC(=O)N2C3)nc1 (some centres not stated) | 1.8%
CC(C)CC(=O)N1CCC2(CC1)CN(Cc1ccccc1)CC2CO (configuration not stated) | 0.5%
O=C(CC1CCCC1)N1CCC(C2CCN(Cc3cccc(F)c3F)CC2)C1 (configuration not stated) | 1.8%
Cc1cc2nc3n(c(=O)c2n1CC(=O)Nc1ccccc1)CCCC3 | -4.4%
O=C(O)CC1(CC(=O)N2CCN3C(=O)c4cc(-c5ccsc5)ccc4NC(=O)[C@H]3C2)CCCC1 | 5.7%
CC(C)c1nc2c(c(-c3ccc(O)cc3)n1)CN(Cc1ccc(N(C)C)cc1)CC2 | 8.4%
COC(=O)C1=CN(CC(=O)Nc2ccccc2C(F)(F)F)S(=O)(=O)N=C1C | 2.0%
COc1ccc(Cl)cc1NC(=O)Cn1c(=O)c(-c2noc(C)n2)c2n(c1=O)CCCC2 | -0.6%
Cc1ccc(C(C(=O)O)N2CCC(C(=O)N3CCCC3)CC2)c(C)c1 (configuration not stated) | 4.6%
CCn1cc(CN(C)CCc2c(C)nn(C)c2C)ccc1=O | -8.6%
CC(=O)NCC(=O)N1CCCn2cc(-c3ccccc3)nc21 | -2.4%
COCC(=O)NC[C@H]1OC[C@@H](NC2CCCC2)[C@@H]1O | -5.6%[70.6 µM]
N#Cc1ccc(C(=O)N2CCCCCNC(=O)[C@@H]3CCCC[C@@H]32)cc1 | -0.2%
CC(C)NC(=O)CN1C(=O)NC(c2ccccc2)C2=C1COC2=O (configuration not stated) | -0.3%
Cc1noc2ccc(-c3cccnc3)nc12 | 7.0%[122 µM]

Continued (seven carried over from the part before).
SMILES | NPR1 antag
Cc1ccc(C(C(=O)O)N2CCC(C(=O)N3CCCC3)CC2)c(C)c1 (configuration not stated) | 4.6%
CCn1cc(CN(C)CCc2c(C)nn(C)c2C)ccc1=O | -8.6%
CC(=O)NCC(=O)N1CCCn2cc(-c3ccccc3)nc21 | -2.4%
COCC(=O)NC[C@H]1OC[C@@H](NC2CCCC2)[C@@H]1O | -5.6%[70.6 µM]
N#Cc1ccc(C(=O)N2CCCCCNC(=O)[C@@H]3CCCC[C@@H]32)cc1 | -0.2%
CC(C)NC(=O)CN1C(=O)NC(c2ccccc2)C2=C1COC2=O (configuration not stated) | -0.3%
Cc1noc2ccc(-c3cccnc3)nc12 | 7.0%[122 µM]
O=C(NC[C@H]1O[C@@H](CO)[C@@H](O)[C@H]1N1CCc2ccccc2C1)Nc1cccc(Cl)c1 | 4.1%
Cc1ncsc1CN1CCC2(CC1)CC(CC(=O)NC1CC1)CCO2 (configuration not stated) | 1.3%
COc1ccccc1CNC(=O)C1(CCO)CCN(Cc2ccccc2)C1 (configuration not stated) | 0.7%
CCS(=O)(=O)c1ccc2oc([C@H]3CCN(Cc4cccc(Cl)c4)C3)nc2c1 | ?
COc1ccccc1N1CCN([C@@H]2[C@H](O)[C@H](CO)O[C@@H]2CNC(=O)c2ccc(F)c(Cl)c2)CC1 | 1.8%
COc1ccc(-c2cc(N3CCCN(C(=O)C4CCN(C(=O)c5ccccc5)CC4)CC3)n[nH]2)cc1 | -0.2%
Cc1noc(C)c1-c1cnc2[nH]cc(CC(=O)N3CCOCC3)c2c1 | 22.4µM*
O=C(Nc1ccc(F)cc1)C1CCCN(c2nc3ncccc3o2)C1 (configuration not stated) | 0.0%[70.6 µM]
COc1ccc(-c2cnc(NC(=O)Cc3ccc(F)cc3)c3c2CCO3)cn1 | -12.5%[70.6 µM]
CC(C)S(=O)(=O)N1CCC2(CC1)CC(N1CCN(c3ccccn3)CC1)CCO2 (configuration not stated) | -9.3%
O=C(Nc1ccc2c(c1)OCCO2)N1CCC(N2CC3CC(C2)[C@H]2CCCC(=O)N2C3)CC1 (some centres not stated) | -1.5%
COCc1nnc([C@@H]2CC(F)(F)CN2Cc2ccc(OC)cc2)o1 | 6.7%

Overlap with the part before: 2 entries, followed by the next part.
SMILES | NPR1 antag
O=C(Nc1ccc2c(c1)OCCO2)N1CCC(N2CC3CC(C2)[C@H]2CCCC(=O)N2C3)CC1 (some centres not stated) | -1.5%
COCc1nnc([C@@H]2CC(F)(F)CN2Cc2ccc(OC)cc2)o1 | 6.7%
CC(C)CN1CCN(C(=O)CCC[C@H]2NC[C@@H]3C[C@H]2CN(Cc2ccccc2)C3)CC1 | -3.4%
Cc1noc(C)c1S(=O)(=O)N1CCCC(Cc2nncn2CC2CC2)C1 (configuration not stated) | 2.6%
O=C(CC(c1cccc([N+](=O)[O-])c1)c1c[nH]c2ccccc12)NCCc1ccccc1 (configuration not stated) | ?
COCCOCC(=O)N1CC2CC(C1)[C@H]1CCCC(=O)N1C2 (some centres not stated) | 2.0%
O=C1NC2(CCN(Cc3cccc4ccccc34)C2)OCc2ccccc21 (configuration not stated) | -12.9%
Cc1noc(C)c1S(=O)(=O)N1CCC2(CC1)c1[nH]c3ccccc3c1CCN2C | 2.2%
O=C(NCCN1CCCCC1)C1CCc2ncc(-c3ccc(F)cc3)n2C1 (configuration not stated) | 3.6%
COCCNC(=O)[C@@H]1C[C@H](Oc2ccccc2)CN1C(=O)Cc1cccc(F)c1 | 3.7%
CC(=O)NC[C@H]1CCN(S(=O)(=O)c2ccc3c(c2)CCC3)C[C@H]1N(C)C | 5.9%
CCOc1nccnc1NC1CCN(C(=O)c2cccnc2)CC1 | 6.6%
OCc1ccc(CN2Cc3[nH]cnc3C[C@H]2c2nc(-c3ccc4ccccc4c3)no2)o1 | -21.1%[70.6 µM]
O=C(CCS(=O)(=O)c1ccccc1)N[C@H]1[C@@H]2CCO[C@@H]2[C@@H]1C1CCCC1 | -3.6%
O=C(N[C@@H]1CN(C(=O)Nc2ccccc2)CCC[C@H]1O)c1ccc(O)cc1 | -2.8%[70.6 µM]
CC(C)CNC(=O)N1CC[C@H]2C(=O)NCCCCCCN(Cc3ccncc3)[C@@H]2C1 | -0.5%

This is a subset, so the mix of outcomes need not match the whole.
